# Compound activity: PubChem, National Center for Advancing Translational Sciences (NCATS)
# CtBP-E1A blk: CtBP/E1A binding inhibition. AlphaScreen GST-E1A/His-CtBP binding, 1536-well; stronger effect = lower value; control for the full effect not named in the record. activity change, % (concentration not given with the values). hit rate 0.49% among 340,000. AID 651724; in the data active means activity change below about -65%; inconclusive means about -30% to -65%; inactive means above about -30%; also: % is scaled to controls: 0 for no effect and ±100 for the full control effect
#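 Homogeneous bead-based format: GST-tagged E1A captured on glutathione donor beads, His-tagged CtBP on nickel acceptor beads; compounds precede bead addition by 2 h at 37 °C.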
# D2 agonist: agonists of human D2 dopamine receptor (beta-arrestin); P14416; DiscoveRx PathHunter D2 beta-arrestin, luminescence, 90 min; 100% = 57 uM dopamine signal; activation, % (test concentration not listed); hit rate 0.084% among 360,000; AID 624465; in the data active = activation above about 40%; inconclusive = about 15% to 40%; inactive = below about 15%; also: compound concentration not given in the record; the text of the record calls up to 30% inactive
# Target sequence (P14416 whole entry, looked up): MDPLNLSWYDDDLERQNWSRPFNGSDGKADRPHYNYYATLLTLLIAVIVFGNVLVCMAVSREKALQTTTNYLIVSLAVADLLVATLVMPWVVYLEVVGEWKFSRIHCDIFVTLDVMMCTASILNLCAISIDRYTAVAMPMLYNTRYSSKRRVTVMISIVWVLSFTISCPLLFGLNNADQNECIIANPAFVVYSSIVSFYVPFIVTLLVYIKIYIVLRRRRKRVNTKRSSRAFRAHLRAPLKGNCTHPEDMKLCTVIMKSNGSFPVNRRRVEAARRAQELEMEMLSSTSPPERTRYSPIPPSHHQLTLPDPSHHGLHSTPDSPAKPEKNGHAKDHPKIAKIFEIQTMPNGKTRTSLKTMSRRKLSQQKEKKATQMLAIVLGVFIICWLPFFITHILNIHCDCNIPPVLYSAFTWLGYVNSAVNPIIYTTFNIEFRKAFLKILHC
#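 Agonist mode: compounds alone added to overnight-plated D2 PathHunter cells for 90 min at 37 C, with 57 uM final dopamine (EC100) defining full response. Beta-arrestin recruitment detected by chemiluminescent reagent, read after 1 h at ambient temperature.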
# D2 PAM: positive allosteric modulators of human D2 dopamine receptor | DiscoveRx D2 beta-arrestin cells, luminescence, 90 min; 100% = 57 uM dopamine signal | potentiation, % (no concentration beside the values) | hit rate 0.23% among 360,000; active = potentiation of 50% or more; inconclusive = 30% to 50%; inactive = 30% or less;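 also: compound concentration not given in the record; tested on top of an EC20 dose of dopamine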
#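 PathHunter D2 cells, attached overnight at 37 deg C, received compound in DMSO plus dopamine at EC20 (50 nM final) for 90 min at 37 deg C. Beta-arrestin recruitment was read as luminescence after 1 h with detection reagent at ambient temperature.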
# PINK1 modulator: modulators of PINK1 expression | PINK1 immunofluorescence, high-content cytometry, 24 h | Potency, µM (highest dose often 76.6 µM), for inactives: top-dose activation (PINK1 increase), usual class: activators | hit rate 0.2% among 410,000; active = well fitted activation curve with a large enough effect; inconclusive = small, poorly fitted or top-dose-only effect; inactive = flat fitted curve, though single readings scatter; cell line not stated here;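 also: potency is read from the fitted curve at half-maximal effect; % of control where 0% means no effect; nearly all actives have a fitted effect of over 65% in size; a mitochondrial uncoupler was the plate control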
#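 Compound titrations (5 concentrations, 24 h) on a stable cell line; DMSO and CCCP controls. Endpoint: fixed-cell PINK1 immunofluorescence with mitochondrial, cell and nuclear markers, scanned by microplate cytometer.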
# TRPML1 agonist: activates the human TRPML1 channel. Q9GZU1. TRPML1-expressing cells, Ca2+ dye fluorescence, FDSS; host cell line not named in the record; reference of the full effect not given here. AID 624414. activation, % (concentration not given with the values). hit rate 0.12% among 410,000; in the data active = activation above about 50%; inconclusive = about 30% to 50%; inactive = below about 30%; also: 0% is about no effect; the text of the record puts the active cut at 80%
# Target sequence (Q9GZU1 whole entry, looked up): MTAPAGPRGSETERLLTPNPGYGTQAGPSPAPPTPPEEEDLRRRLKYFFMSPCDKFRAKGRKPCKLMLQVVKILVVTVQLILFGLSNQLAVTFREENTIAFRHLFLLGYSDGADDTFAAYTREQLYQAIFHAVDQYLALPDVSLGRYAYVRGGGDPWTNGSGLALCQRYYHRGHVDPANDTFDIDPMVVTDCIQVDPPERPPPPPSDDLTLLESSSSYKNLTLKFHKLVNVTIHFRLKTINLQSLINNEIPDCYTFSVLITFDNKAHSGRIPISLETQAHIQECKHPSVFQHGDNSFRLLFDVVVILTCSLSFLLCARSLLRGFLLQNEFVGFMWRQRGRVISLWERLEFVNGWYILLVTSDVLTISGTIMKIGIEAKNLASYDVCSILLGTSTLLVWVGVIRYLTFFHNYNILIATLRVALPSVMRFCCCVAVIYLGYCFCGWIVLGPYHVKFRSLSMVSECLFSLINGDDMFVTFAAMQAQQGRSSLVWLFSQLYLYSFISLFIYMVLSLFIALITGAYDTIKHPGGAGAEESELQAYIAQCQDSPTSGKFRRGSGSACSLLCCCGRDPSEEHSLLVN
#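 TRPML1-DL cells, Tet-induced overnight (~16 h, 37 degrees C), loaded 45-90 min at room temperature with Ca8 no-wash calcium dye plus quencher. FDSS fluorescence: 10 s baseline, compound pin-transfer, 110 s agonist read, then EC80 54-4 (4uM final) and 110 s antagonist read.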
# Six1-Eya2 inh: inhibitors of human Six1/Eya2 interaction; Q15475+O00167; AlphaScreen GST-Six1/His-Eya2 binding, biochemical; stronger effect = lower value; control for the full effect not named in the record; activity change, % (test concentration not listed); hit rate 0.56% among 360,000; AID 651725; in the data active = activity change below about -65%; inconclusive = about -30% to -65%; inactive = above about -30%; also: % is scaled to controls: 0 for no effect and ±100 for the full control effect; compound concentration not given in the record
#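 AlphaScreen luminescence read after one hour at 37 °C in darkness. Pin-transferred compounds met GST-Six1 and His-Eya2 protein (5X stock 250 nM/500 nM) plus glutathione donor and Ni-chelate acceptor beads (5X, 50 ug/mL).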
# Starred values were filed as active, the others as inactive; · = no result given; [ ] = remark or other dose.
SMILES,CtBP-E1A blk,D2 agonist,D2 PAM,PINK1 modulator,TRPML1 agonist,Six1-Eya2 inh
COCCNC(=O)C(c1ccc(F)cc1)N(C(=O)CCC(=O)Nc1ccccn1)c1cccc(C)c1 (configuration not stated),6,-0.7,-1,-0.3%,-0.4,6
CCN1CCN(CCCNC(=O)Cn2cc3c(n2)CCCC3)CC1,4,-2.4,-1,0.8%,-0.2,0
CC(c1nnc(Sc2nnnn2-c2ccccc2)n1-c1ccc(F)cc1)N(C)C (configuration not stated),8,-7.2,-16,-3.0%,0.6,21
Cc1ccccc1NC(=O)c1cnc2ccccn2c1=O,6,0.3,-5,-2.0%[38.3 µM],0.1,4
COc1cc(-n2c(C)nc3cc(C(=O)N4CCOCC4)ccc32)cc(OC)c1OC,7,-2.5,7,-0.4%,0.4,10
O=C(CSc1nncn1-c1ccccc1)N1CCCC1,-14,-4.0,-3,-1.9%,-0.2,-6
Cc1ccc(S(=O)(=O)c2ccccc2)cc1S(=O)(=O)N1CCOCC1,7,-3.1,-10,-3.8%,-0.8,5
CCc1ncc(CN2CCCC(C(=O)Nc3ccc(-c4cscn4)cc3)C2)cn1 (configuration not stated),1,-6.9,-9,0.5%,-0.5,-6
CC(=O)N(c1ccccc1)C1CCCC1,5,0.2,13,1.3%,0.1,-1
COCCCNC(=S)N/N=C/c1ccc(OC)cc1,6,-0.1,3,-1.5%,0.3,-1
Cn1c(=O)n(C)c2cc([N+](=O)[O-])c(N3CCN(C(=O)c4ccc(Cl)cc4)CC3)cc21,41,-0.5,3,·,-0.3,0
O=C1CSC(c2cn(-c3ccccc3)nc2-c2ccc3c(c2)OCCO3)N1CCN1CCOCC1 (configuration not stated),-2,-4.6,-30,1.8%,-0.6,3
COc1cc(NS(=O)(=O)c2ccc(NC(=O)c3cccnc3)cc2)ncn1,7,-5.5,-2,0.5%,-0.4,5
CC(O)CNc1nc2sc3c(c2c(=O)n1Cc1ccco1)CCCCC3 (configuration not stated),-7,-0.6,-10,-0.2%,-0.7,-17
COc1ccc(CNC(=O)CCn2c(=O)[nH]c3ccccc3c2=O)cc1,0,-3.0,-2,-0.6%,0.5,-2
O=C(C[n+]1ccccc1)N/N=C/c1cccc(Cl)c1Cl,·,-6.5,-7,2.0%,-0.6,-4
O=C(Cc1ccc([N+](=O)[O-])cc1)N1CCCc2ccccc21,·,13,4,3.2%,0.3,-1
CCOC(=O)c1cc2c(ccn2-c2ccc(F)cc2)n1CC(=O)N(CC)CC,·,6.5,-14,4.0%,1.4,-21
CCN(CC(=O)NCCc1ccc(S(N)(=O)=O)cc1)Cc1nc2cc(OC)c(OC)cc2c(=O)[nH]1,-7,-0.1,-21,2.4%,-0.1,11
COc1cc(SC)ccc1C(=O)OCc1nc2ccsc2c(=O)[nH]1,7,-1.8,16,3.2%,0.1,-4

# Structural class, those above containing an aryl thioether with sulfur outside any ring.
SMILES,CtBP-E1A blk,D2 agonist,D2 PAM,PINK1 modulator,TRPML1 agonist,Six1-Eya2 inh
CC(c1nnc(Sc2nnnn2-c2ccccc2)n1-c1ccc(F)cc1)N(C)C (configuration not stated),8,-7.2,-16,-3.0%,0.6,21
O=C(CSc1nncn1-c1ccccc1)N1CCCC1,-14,-4.0,-3,-1.9%,-0.2,-6
COc1cc(SC)ccc1C(=O)OCc1nc2ccsc2c(=O)[nH]1,7,-1.8,16,3.2%,0.1,-4

# (cont.)
SMILES,CtBP-E1A blk,D2 agonist,D2 PAM,PINK1 modulator,TRPML1 agonist,Six1-Eya2 inh
C[C@H](CO)N1C[C@H](C)[C@@H](CN(C)S(=O)(=O)c2cccs2)Oc2ccc(NC(=O)c3ccncc3)cc2C1=O,4,-2.5,0,1.8%,-0.6,5
CC(C)[C@H](NC(=O)c1ccccc1)C(=O)NC1=NCCS1,7,1.8,4,1.2%,-0.7,2
Cc1cccc(OCC(=O)NCCN2CCOCC2)c1,0,-1.9,1,0.4%[38.3 µM],0.7,1
CC(=O)NC(c1ccccc1)c1nc(-c2cc(F)cc(F)c2)cs1 (configuration not stated),8,-2.8,-5,8.6%,-0.4,-4
COc1ccc(OC)c2sc(N3CCc4ccccc4C3)nc12,1,-6.3,11,-0.5%,0.9,9
Cc1ccc(C(=O)NC(=S)NNC(=O)COc2ccc([N+](=O)[O-])cc2)cc1,13,-2.0,-14,5.6%,-0.8,-5
Cc1cc(C)nc(N2CCC(C(=O)NCc3cccc(C(F)(F)F)c3)CC2)n1,1,-2.2,-1,0.5%,-0.4,-1
COc1cccc(NCc2cc3c(C(C)(C)C)nn(-c4ccccc4)c3[nH]c2=O)c1,-28,-0.7,-12,-0.7%[38.3 µM],-0.3,-23
CN[C@H]1CCc2cc(OC)c(OC)c(OC)c2-c2ccc(OC)c(=O)cc21,-1,-1.2,-1,0.7%,-0.7,-1
CCc1nnc(NC(=O)CSC(=S)N2CCOCC2)s1,10,2.2,10,-1.4%,-0.1,10
CC1(C)CC(NC(=O)c2ccc(-c3ccc([N+](=O)[O-])cc3)o2)CC(C)(C)N1,-14,0.3,-3,-0.9%,0.3,-26
Cc1ccccc1OCC(=O)NC1CCCCCCC1,15,-1.9,-5,3.1%,0.9,3
COc1cc(NC(=O)CSc2ccc(-c3ccco3)nn2)cc(OC)c1,-8,4.2,8,-1.4%,0.6,-10
Cn1c(C(C#N)C(=O)c2ccco2)nc2ccccc21 (configuration not stated),-11,-4.3,-5,3.2%,1.8,-11
CCOc1cc(C=O)ccc1OCC(N)=O,·,-2.6,-3,0.2%,0.7,0
CN(Cc1cccs1)C(=O)c1cccc(S(=O)(=O)N2CCCCCC2)c1,0,-1.5,-20,2.2%,2.4,2
CCc1nnc(NC(=O)c2cccc(S(=O)(=O)N(C)c3ccccc3)c2)s1,-9,-1.2,5,-1.5%,4.1,4
Cc1noc(C)c1NC(=O)N(C)C[C@@H]1Oc2c(NC(=O)c3ccncc3)cccc2C(=O)N([C@H](C)CO)C[C@@H]1C,-1,-2.6,-4,1.6%,-0.4,1
COc1ccc(NC(=O)C2CC(c3ccccc3Cl)=NO2)cc1 (configuration not stated),-3,-0.1,-7,2.6%,0.9,-4
CNC(=O)c1c(NC(=O)C2=COCCO2)sc2c1CCC(C)C2 (configuration not stated),14,-3.8,9,1.9%,1.0,1

# Look-ups from the list.
# Result of COc1cccc(NCc2cc3c(C(C)(C)C)nn(-c4ccccc4)c3[nH]c2=O)c1 in TRPML1 agonist: -0.3
# Result of CC(=O)NC(c1ccccc1)c1nc(-c2cc(F)cc(F)c2)cs1 (configuration not stated) in D2 PAM: -5
# Result of CCc1nnc(NC(=O)CSC(=S)N2CCOCC2)s1 in Six1-Eya2 inh: 10
# Result of COc1ccc(OC)c2sc(N3CCc4ccccc4C3)nc12 in CtBP-E1A blk: 1
# Result of CN[C@H]1CCc2cc(OC)c(OC)c(OC)c2-c2ccc(OC)c(=O)cc21 in Six1-Eya2 inh: -1
# Result of Cn1c(C(C#N)C(=O)c2ccco2)nc2ccccc21 (configuration not stated) in PINK1 modulator: 3.2%
# Result of COc1cc(NC(=O)CSc2ccc(-c3ccco3)nn2)cc(OC)c1 in D2 PAM: 8

# Next part:
SMILES,CtBP-E1A blk,D2 agonist,D2 PAM,PINK1 modulator,TRPML1 agonist,Six1-Eya2 inh
O=C(CSc1ccccc1)Nc1ccc2c(c1)OCO2,-2,1.7,-10,1.0%,-0.6,-3
CCN1C(=O)C(NC(C)=O)c2cc(OC)ccc21 (configuration not stated),3,-1.4,-5,0.4%,0.2,0
CCOC(=O)c1c(CN2CCN(C)CC2)oc2ccc(OC)cc12,-8,-2.3,-25,-1.3%,0.6,0
NS(=O)(=O)c1cccc(NS(=O)(=O)c2cccc(C(F)(F)F)c2)c1,2,-0.6,-3,-0.8%,0.2,1
O=C(CSC(=S)N1CCOCC1)Nc1nccs1,3,0.6,-3,4.4%,·,23
COC(=O)c1ccc(Cl)cc1N(Cc1c(F)cccc1Cl)S(C)(=O)=O,50,-1.8,-2,-0.3%,108*,37
N=C1C(c2nc(-c3ccc(Cl)cc3)cs2)=C(O)CN1CCCN1CCOCC1,15,-1.3,-33,4.5%,-0.6,-1
Cc1ccc(OCCn2cnc3ccccc3c2=O)c([N+](=O)[O-])c1,3,-5.7,1,2.7%,-0.9,4
CC1(C)CC(=O)C=C(c2cccc(Cl)c2O)C1,-9,-7.6,-10,-1.1%,-0.6,-9
COC(=O)c1ccc(NC(=O)CN2CCN(c3ccccc3C)CC2)cc1,3,-1.1,-26,0.1%[38.3 µM],0.9,-3
COc1ccc(OCC(=O)OCC(=O)c2ccc(OC)c(F)c2)cc1,1,4.1,-3,2.0%,2.9,4
Cc1ccccc1C1CCCN(C(=O)c2cc(COc3c(F)cccc3F)on2)C1 (configuration not stated),10,-0.7,-8,0.2%,0.4,2
O=C(O)C1C2CCC(C2)C1C(=O)NCc1ccco1 (configuration not stated),-1,-5.2,0,3.6%,0.0,0
CCOc1ccc(S(=O)(=O)Nc2ccccn2)c2ccccc12,0,0.5,-1,·,0.3,3
COc1ccc(NC(=O)C(F)(OC)C(F)(F)F)c(OC)c1 (configuration not stated),2,0.7,0,·,0.4,5
CC(=O)c1ccccc1C(=O)N1CCCC(C(=O)c2ccc(C(F)(F)F)cc2)C1 (configuration not stated),7,-1.0,-16,0.0%,-0.6,5
CCn1c(=O)c(CCC(=O)NCCN2CCOCC2)c(C)c2c(C)nn(-c3ccccc3)c21,-14,0.0,-10,-0.2%,0.1,7
CC1=C(C(=O)Nc2ccccc2F)C(c2cccs2)NC(=S)N1 (configuration not stated),1,-0.9,-6,-1.1%,-0.1,-6
CN(C)CCn1cnc2c1c(=O)n(C)c(=O)n2C,16,-6.4,-13,-2.3%,0.2,-2
CN(C)CCCN(C(=O)c1ccco1)c1nc2ccc(F)cc2s1,3,-0.9,-20,1.3%,-0.8,1
Cn1c(SCC(=O)c2ccccc2)nnc1-c1cccnc1,3,-0.1,-6,-1.5%,-0.1,6
COCc1nc2ccccc2n1Cc1ccccc1,3,-4.3,-17,-1.4%,-0.7,-2
CCOC(=O)c1ccccc1Oc1c(F)c(F)nc(NCCO)c1F,12,0.3,-2,-1.8%[38.3 µM],6.9,-1
COc1ccc(NC(=O)CCC(=O)c2ccc(-c3ccccc3)cc2)cc1,0,-4.5,-13,2.7%,-0.6,0
Cc1ccc(C)[n+](CC(=O)c2ccc(-c3ccccc3)cc2)c1,-2,-0.7,-8,-0.1%,0.2,1
CC1CCCCN1S(=O)(=O)c1ccccc1[N+](=O)[O-] (configuration not stated),-5,-2.2,-7,0.7%,-0.6,19
CC1CC(C)CN(S(=O)(=O)N2CCCC(C(=O)NCCc3ccc(Cl)cc3)C2)C1 (configuration not stated),10,-1.4,-9,9.1%,0.7,0

# Taken from the entries so far (two entries):
SMILES,CtBP-E1A blk,D2 agonist,D2 PAM,PINK1 modulator,TRPML1 agonist,Six1-Eya2 inh
Cn1c(SCC(=O)c2ccccc2)nnc1-c1cccnc1,3,-0.1,-6,-1.5%,-0.1,6
COCc1nc2ccccc2n1Cc1ccccc1,3,-4.3,-17,-1.4%,-0.7,-2
